Screening data deposited in PubChem BioAssay by National Center for Advancing Translational Sciences (NCATS).
Anthrax LT inh – blocks cellular internalization of anthrax lethal toxin | Cells, anthrax lethal toxin internalization, FRET ratio (460/530) | Potency, µM (highest dose often 40 µM), for the others: top-dose activity change, negative = inhibition, hits mostly inhibitors | hit rate 0.67% among 70,000 | AID 912; active = well fitted falling ratio curve with the 530 nm signal flat; inconclusive = other ratio curves, or a change in one channel alone; inactive = flat curves in the ratio and both channels; the % refers to the ratio; further: on the % scale 0 is the no-effect control and ±100 the full control effect; nearly all actives have a fitted effect of over 50% in size; tested in ME-180 cells; beta-lactamase reporter
Prx2 Sm inh – blocks S. mansoni peroxiredoxin 2 enzymatic activity; S. mansoni Prx2 activity coupled to TGR/GSH (TGR is thioredoxin glutathione reductase), NADPH fluorescence loss, qHTS; some inactives read as strong as hits; AID 448; hit rate 0.07% among 65,000; Potency, µM; active means full or partial inhibition curve with a strong effect at the top dose; inconclusive means weaker partial or single-point curve; inactive means no accepted curve; further: series up to 57 µM; many of its hits are not listed in these tables
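Coupled assay in which S. mansoni TGR passes NADPH reducing equivalents via glutathione to Prx2, which reduces H2O2. Compounds were preincubated 15 min at room temperature with 25 nM TGR/50 nM Prx2 mix. Kinetic NADPH fluorescence loss (ex 365/em 450 nm) was monitored.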
* marks the source's active call; other numbers are inactive results; u = inconclusive; x = no result given; & = joins results of further samples; [ ] = remark or other dose. Potency means the concentration at half of the fitted maximal effect. Only part of the results is shown (hit frequency here may not be typical).

Each structure is followed by: Anthrax LT inh | Prx2 Sm inh
1: CCOC(=O)N1CCC(N(C(=O)Nc2cccc(OC)c2)C(C)CC)CC1 (configuration not stated)
→ 7% | >57
2: CCN1/C(=C(\O)c2ccccc2)C(=O)c2ccccc2S1(=O)=O
→ -11% | >57
3: OCC(CBr)(CBr)CBr
→ -10% | x
4: COc1cccc([C@@H]2Oc3ccc(OC)cc3/C(=N/O[C@@H](C)c3cn([C@H]4COC[C@H]4O)nn3)[C@@H]2O)c1
→ 0%[1.6 µM] | x
5: O=C(O)CSC1CC(=O)N(c2ccc(Cl)c(Cl)c2)C1=O (configuration not stated)
→ -1% | >57
6: C/C(N)=C(/C#N)C(=O)COC(=O)CSc1ccccc1
→ -5% | >57
7: Cc1nc2ccccc2c2oc(C(=O)N3CCc4ccccc4C3)cc12
→ 10µM* | >57
8: CC(C)CCOc1ccc(C2(C)NC(=O)N(CN3CCOCC3)C2=O)cc1 (configuration not stated)
→ 58% | >57
9: CCOC(=O)C1=C(C)Nc2nnnn2C1c1ccc(OC)c(Br)c1 (configuration not stated)
→ -3% | >57
10: Cc1cc(S(=O)(=O)NC2CCCCC2)ccc1OCC(=O)NCc1ccccn1
→ 0% | >57
11: CN(C)S(=O)(=O)c1ccc(N2CCN(S(=O)(=O)c3ccc(F)cc3)CC2)c(Cl)c1
→ 2% | >57
12: COc1ccc(S(=O)(=O)N2CCSC2c2ccc(N)cc2)cc1 (configuration not stated)
→ -2% | >57
13: COc1ccc2nc(SCC(=O)Nc3ccccc3C#N)[nH]c2c1
→ 10% | >57
14: O=C(/C=N/O)NCC1CCNCC1
→ u | >57
15: C/C(=C\C(=O)c1ccncc1)Nc1ccccc1O
→ 2.5µM* | x
16: Cc1sc2nc3ccc(N4CCCCC4)nn3c(=O)c2c1C
→ 6% | >57
17: C=CCCC
→ 2% | x
18: CCCn1c(N2CCN(CC(=O)Nc3ccc4c(c3)OCCO4)CC2)nc2ccccc21
→ 4% | >57
19: Cc1ccc(C(=O)NCC2CCCO2)cc1N1CCCC1=O (configuration not stated)
→ 12% | >57
20: CC1OC(Nc2ccc(OC(F)(F)F)cc2)C(O)C(O)C1O (configuration not stated)
→ 10% | >57
21: CN=C1N[C@H](c2ccccc2)N(c2ccccc2)S1
→ 25µM* | >57
22: CN1CCN(S(=O)(=O)c2ccc(Sc3nnc(-c4cccs4)n3-c3ccccc3)nc2)CC1
→ 9% | >57
23: Cn1c(SCC(=O)Nc2nc3c(s2)CCCC3)nnc1-c1ccccc1
→ 6% | >57
24: CCOC(=O)c1c(NC(=O)CSc2n[nH]c(N)n2)sc(CC)c1C
→ 14% | >57
25: Oc1ccc(N2CCN(C(c3cccs3)c3nnnn3CCc3ccccc3)CC2)cc1 (configuration not stated)
→ -7% | >57
26: Cc1ccc(O)c(N)c1
→ 4% | x
27: C=CCn1c(SCC(=O)NC2CCCCC2)nnc1C(C)NC(=O)c1cccs1 (configuration not stated)
→ 10% | >57
28: O=C(c1cccnc1)N1CCc2ccccc21
→ 5% | >57
29: CC(=O)Nc1ccc2nc(SCC(=O)O)sc2c1
→ -3% | >57
30: Cc1ccc(N2CN=c3s/c(=C\c4ccccn4)c(=O)n3C2)cc1
→ -6% | x

Later entries.
Each structure is followed by: Anthrax LT inh | Prx2 Sm inh
31: Cc1cccc(-c2ccc(C=Nc3c(C)n(C)n(-c4ccccc4)c3=O)o2)c1
→ -5% | >57
32: Cc1ccc2nc(-c3cccc(NC(=O)c4ccc5c(c4)OCCO5)c3)oc2c1
→ u | >57
33: Cc1ccc(C2NC(=O)NC(O)(C(F)(F)F)C2C(=O)c2ccccc2)o1 (configuration not stated)
→ -5% | >57
34: COC(=O)c1c(NC(=O)CCCC(=O)O)sc(C)c1C
→ 5% | x
35: O=C(O)CC1C(=O)NCCN1C/C=C/c1ccccc1 (configuration not stated)
→ -6% | >57
36: CC(=O)c1ccc(N2C(=O)C3C(C2=O)C(C(=O)c2ccc(Cl)cc2)N2CCCC32)cc1 (configuration not stated)
→ -8% | >57
37: CC(C)(C)c1ccc(S(=O)(=O)n2c(CN3CCOCC3)nc3ccccc32)cc1
→ -7% | >57
38: CCCCN1CC(O)=C(c2nc3ccccc3s2)C1=N
→ 10% | >57
39: Cc1cc(C)cc(NC(=O)C2CCN(c3nc(C)cc(C)n3)CC2)c1
→ 8% | >57
40: O=C(CCSc1ccccc1)Nc1ncccn1
→ 8% | >57
41: N#Cc1c(NC(=O)CCC(=O)O)ccc2ccccc12
→ -4%[8 µM] | >57
42: COCCn1c(=O)c(-c2cn(C)c3ccccc23)nc2cnc(Oc3cccc(Cl)c3)nc21
→ 1% | >57
43: COC(=O)c1ccccc1NC(=O)C1CC(c2ccccc2O)=NO1 (configuration not stated)
→ 17% | >57
44: COc1ccc(N2C(=O)CC(N3CCN(C4CCc5ccccc5C4)CC3)C2=O)cc1 (configuration not stated)
→ x | >57
45: COc1cccc(C(c2sc3nc(C)nn3c2O)N2CCN(c3ccccc3F)CC2)c1 (configuration not stated)
→ 0% | >57
46: COc1cc2c(cc1OC)[C@@H]1C(=O)c3ccc4c(c3O[C@@H]1CO2)C=CC(C)(C)O4
→ u | >26
47: CN1CCN(c2ncnc3ccc(-c4ccc(C(=O)N(C)C)cc4)cc23)CC1
→ 8% | >57
48: Oc1ccccc1-c1ccccc1
→ -6% | x
49: COc1ccc(NC(=O)N2CCC3(CC2)CCN(C(=O)c2csnn2)CC3)cc1
→ 2% | >57
50: C=CCN1C(=O)CN=C1Nc1ccc(OC)cc1OC
→ -17% | >57
51: CC1(C)CC(=O)N(CC(=O)NC2CCCC2)c2ccccc2S1(=O)=O
→ 12% | >57
52: c1ccc(-c2nc(N3CCOCC3)c3ccccc3n2)nc1
→ u | >57
53: O=C(O)c1cccc(S(=O)(=O)N2CCOCC2)c1
→ 8% | >57
54: O=C(c1cccs1)N1C2CCC1CC(O)(c1cccnc1)C2 (configuration not stated)
→ 7% | >57
55: Cc1ccc(S(=O)(=O)NCCNC(=O)N2CCOCC2)cc1
→ -16% | >57
56: COc1ccccc1-c1nc(NCc2cccnc2)c2ccccc2n1
→ -5% | >57
57: CCN(CCCNC(=O)c1[nH]c(C)c(C(C)=O)c1C)c1cccc(C)c1
→ -8% | >57
58: CCCn1c(C)nc2c(NCc3ccccc3)nc(C)nc21
→ -9% | x
59: Cc1ccc2c(c1)-c1c(cnn1CC(=O)N1CCCN(Cc3ccccc3F)C1)CO2
→ u | >57
60: CN(C)Cc1c[nH]c2ccccc12
→ u | >57&>57

Other entries:
Each structure is followed by: Anthrax LT inh | Prx2 Sm inh
61: O=C(CSc1nnc(-c2ccco2)o1)N1CCOCC1
→ -5% | >57
62: CCOC(=O)c1cnc2nc[nH]n2c1=O
→ -6% | >57
63: C=CCNCc1cccn1-c1sc2c(c1C#N)CCCC2
→ -4% | >57
64: COC(=O)C1=C(C)NC(C)=C(C(=O)OC)C1c1cc2ccc(C)cc2[nH]c1=O
→ u | >57
65: C=CCn1c(O)c(C(CC)=Nc2cc(OC)ccc2OC)c(=O)[nH]c1=O
→ u | >57
66: Nc1nc2c(cnn2CCc2ccccc2)c2nc(-c3ccco3)nn12
→ u | x
67: CCOC(=O)c1ccc(NC(=O)CSc2nnc(C)n2-c2ccccc2)cc1
→ x | >57
68: S=c1[nH]nc(-c2ccccc2Cl)n1CC1CCCO1 (configuration not stated)
→ 9% | >57
69: CCOc1ccc(NC(=O)CCN2CCN(c3ccccc3)CC2)cc1
→ -7% | x
70: Cc1noc(/C=C/N(C)C)c1S(=O)(=O)N1CCCC(C(=O)NCc2ccco2)C1 (configuration not stated)
→ 5% | >57
71: CC[C@]1(O)C[C@@H]2CN(CCc3c([nH]c4ccccc34)[C@](C(=O)OC)(c3cc4c(cc3OC)N(C)[C@H]3[C@](O)(C(=O)OC)[C@@H](C(=O)OC)[C@@]5(CC)C=CCN6CC[C@@]43[C@@H]65)C2)C1
→ u | >57
72: COc1ccc([C@H]2Sc3ccccc3N(CCN(C)C)C(=O)[C@H]2OC(C)=O)cc1
→ -1%[3.58 µM] | >57&>57
73: CC1CCCCN1S(=O)(=O)c1coc(C(N)=O)c1 (configuration not stated)
→ 2% | >57
74: COc1cc(NC(=O)CCCC(=O)OCC(F)(F)C(F)F)nc(OC)n1
→ 0% | x
75: Cc1ccc(S(=O)(=O)Nc2cc(C(=O)O)ccc2N2CCCCC2)cc1
→ -5% | >57
76: O=Nc1c2nc3ccccc3n(O)c-2c2ccccc12
→ 6% | >57
77: Cc1ccc(S(=O)(=O)Cc2ccc(C(=O)N3CCN(c4ccccn4)CC3)o2)cc1
→ -17% | >57
78: CC1Cc2ccccc2N1C(=O)c1ccc2snnc2c1 (configuration not stated)
→ -22% | x
79: NC1(C(=O)OCc2ccccc2)CCCC1
→ 1%[8 µM] | >57
80: CCOc1cc(NC(=O)c2ccco2)c(OCC)cc1NC(=O)CCc1ccccc1OC
→ u | >57
81: CC1CCCC(C)N1C(=O)Cn1c(SCC(=O)Nc2ccc3c(c2)OCO3)nc2ccccc21 (configuration not stated)
→ 3% | >57
82: CCOC(=O)CSc1ncnc2c1cnn2-c1ccccc1
→ -6% | >57
83: CN(C)C(=O)N1CCN(C(=O)N(C)C)CC1
→ 4% | >57
84: O=C(CN1CCOCC1)NCCNC(=O)CN1CCOCC1
→ -9% | >57
85: CC(C)N1CCN(c2ccc(OC[C@@H]3CO[C@@](Cn4cncn4)(c4ccc(Cl)cc4Cl)O3)cc2)CC1
→ -10%[3.58 µM] | >57
86: CCC1S/C(=C(\C#N)C(N)=O)N(c2ccc(F)cc2)C1=O (configuration not stated)
→ -11% | >57
87: COc1ccc(CCNC(=O)Cn2c(=O)n(Cc3ccco3)c(=O)c3ccc(Cl)cc32)cc1OC
→ -8% | >57
88: O=C(NCCc1ccccc1)C1CCN(S(=O)(=O)c2cccs2)CC1
→ 0% | >57
89: COc1ccc(NC(=O)N(CCCN(C)C)Cc2cc3cc(OC)ccc3[nH]c2=O)cc1
→ -5% | >57
90: COC(=O)Cc1ccc2c3ccccc3n(C)c2c1
→ -26% | x

(list continues)
Each structure is followed by: Anthrax LT inh | Prx2 Sm inh
91: S=c1[nH]nc(COc2ccccc2)n1C1CCCCC1
→ -18% | x
92: O=C(NCCc1ccccc1)c1c(O)c2cccc3c2n(c1=O)CC3
→ -1% | >57
93: CCCCN1CCCCC1C(=O)Nc1c(C)cc(C)cc1C (configuration not stated)
→ -8% | >57
94: CC(C)OC(=O)c1nnc(Cc2ccc(Cl)cc2)o1
→ 2% | >57
95: Cc1oc(-c2ccc(Cl)cc2)nc1CN1CCCC(C(=O)NCc2ccco2)C1 (configuration not stated)
→ u | >57
96: CCC(=O)N1CCc2cc(S(=O)(=O)N3CCN(c4ccccn4)CC3)ccc21
→ 5% | >57
97: COCCCNC(=O)Cn1cc2c(n1)CCCCC2
→ 3% | >57
98: O=C(OC1CCOC1=O)c1ccc(-c2nc3ccccc3s2)s1 (configuration not stated)
→ -2% | >57
99: C=C1CC[C@@H](O)C/C1=C/C=C1\CCC[C@]2(C)[C@@H]1CC[C@H]2[C@@H](C)CCCC(C)C
→ u | >57
100: CC(C)C(C)C
→ -8% | x
101: Cc1cccc2cc(CN(CC3CCCO3)C(=O)c3ccncc3)c(=O)[nH]c12 (configuration not stated)
→ -13% | >57
102: CCCCc1c(O)nc2n(c1=O)CCS2
→ 2% | >57
103: COCCCNC(=O)c1cc2c(=O)n3cccc(C)c3nc2n(C(C)C)c1=N
→ u | >57
104: CCOC(=O)C1CCCN(c2c(NCCN(C)Cc3ccccc3)c(=O)c2=O)C1 (configuration not stated)
→ -13% | >57
105: O=C1OC(=O)c2c(Br)c(Br)c(Br)c(Br)c21
→ 6% | x
106: CCOC(=O)C1CCCN(S(=O)(=O)c2cc(Br)cc3c2N(C(=O)C2CC2)CC3)C1 (configuration not stated)
→ -11% | >57
107: COc1ccc(N2CCN(C(=O)CCN3C(=O)c4ccccc4S3(=O)=O)CC2)cc1
→ -14% | >57
108: Cc1nccc2[nH]c(=O)c(C(=O)NC3CCN(Cc4ccccc4)CC3)cc12
→ -8% | >57
109: O=C(/C=C/c1ccc(O)cc1)c1ccc(O)cc1O
→ -16%[8 µM] | x
110: Cc1cc(/C=N/n2cnnc2)c(C)n1-c1ccc2ncccc2c1
→ -6% | x
111: O=C(O)c1cccc(CN2C(=O)CSC2=O)c1
→ -14% | x
112: CC(C)CN(C(=O)c1ccc(=O)n(C)n1)c1nc2ccccc2s1
→ 10% | >57
113: CCOC(=O)N1CCc2c(sc3c2C(=O)NC(c2ccccc2)N3)C1 (configuration not stated)
→ 8% | >57
114: CCCCCOC(=O)C1[C@H]2C(=O)N(CCCOC)C[C@]23C=C[C@H]1O3 (some centres not stated)
→ u | >57
